Screening data as filed in PubChem.
WNV protease inh: inhibitors of West Nile virus NS2B-NS3 protease | P06935 | WNV NS2B-NS3 protease, fluorogenic substrate Ex360/Em465; hits give low values | z-score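 (tested at a level between 10 and 100 µM)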 | 0.18% of 65,000 active | AID 577;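 active = z-score at -3 or under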;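 also: score is relative to mean and spread of the compound wells of a plate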
Target sequence (P06935 1371-1501 limits assumed): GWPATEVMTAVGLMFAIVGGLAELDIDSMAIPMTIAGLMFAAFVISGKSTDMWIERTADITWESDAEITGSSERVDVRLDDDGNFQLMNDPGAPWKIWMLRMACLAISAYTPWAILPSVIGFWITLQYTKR
Target sequence (P06935 1502-1679 limits assumed): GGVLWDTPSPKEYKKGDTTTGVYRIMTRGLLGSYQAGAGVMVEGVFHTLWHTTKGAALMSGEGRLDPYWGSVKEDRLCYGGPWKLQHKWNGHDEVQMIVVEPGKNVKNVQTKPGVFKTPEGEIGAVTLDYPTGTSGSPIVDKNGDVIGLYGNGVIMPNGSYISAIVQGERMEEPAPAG
Hsc70 ATP site: Hsc70 inhibitors, probe displacement, primary screen, biochemical, fluorescence polarization (AID 568); Hsc70 fluorescence polarization, probe displacement; higher % means a stronger effect; strong numbers were not always called active; displacement, % at 20 µM; hits with a dose series show IC50 in µM; 83,000 tested, under 10 active;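 active = displacement above 50% without optical interference and an IC50 on retest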;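 also: ATPase domain with a fluorescein-tagged ATP probe; 0% = vehicle and 100% = excess ADP; read after one hour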
MT1-MMP promoter: MT1-MMP gene expression reporter suppression – cell-based, luciferase reporter, luminescence (AID 618). MT1-MMP promoter luciferase reporter cells, luminescence. calls from a first round at 10 µM; hits with a dose series show EC50 in µM. 0.62% of 87,000 active;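 active = over half of the reporter light lost at 10 µM or EC50 under 50 µM; inactive = the rest and hits that failed the dose series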;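 also: actives suppress MT1-MMP promoter-driven transcription so potencies describe inhibitors; HT1080 fibrosarcoma cells; overnight exposure; toxic or luciferase-blocking compounds were not removed from the actives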
* = called active by the depositor; i = inactive; . = no result given; + = active, no number; & = joins results of further samples.

molecule	WNV protease inh	Hsc70 ATP site	MT1-MMP promoter
Cc1ccc(C)c(N(C)S(=O)(=O)c2cccc3nsnc23)c1	0.86	-8.5%	i
CCOP(=O)(c1ccccc1)c1nc(-c2ccccc2C)oc1N1CCCCC1 (stereo not given)	-0.29	-4.5%	i
CCN(CC)c1ccc(C2C(C(=O)OC)=C(C)NC(C)=C2C(=O)OC)cc1	0.21	-1.6%	i
CC1CCCN(CCC(=O)Nc2ccc(Br)cc2)C1 (stereo not given)	.	7.9%	i
CCOC(=O)c1cccc(NC(=O)CNS(=O)(=O)c2cccs2)c1	0.46	0.2%	i
CC(OC(=O)c1snc(C(=O)NC2CCCCC2)c1N)C(=O)NC(C)(C)C (stereo not given)	.	1.3%	i
CCn1c(SCC(=O)c2ccc(C)cc2)nnc1-c1ccoc1C	0.79	2.0%	i
NC(=O)CN1C(=O)C2C3c4ccccc4C(c4ccccc43)C2C1=O (stereo not given)	.	3.6%	i
O=C(N/N=C1\CCCc2ccccc21)c1ccccc1[N+](=O)[O-]	.	-1.4%	i
CCCn1c(CCC(=O)O)ccc1-c1ccc(OC)cc1	0.09	-18%	i

(list continues)
molecule	WNV protease inh	Hsc70 ATP site	MT1-MMP promoter
Cc1ccc(S(=O)(=O)N(C)CC(=O)Nc2ccncc2)cc1	0.19	7.1%	i
COc1cccc(CN2CCCC(C(=O)N3CCCCC3)C2)c1OC (stereo not given)	-0.53	3.8%	i
CCCOc1ccc(/C(O)=C2\C(=O)C(=O)N(CCCN(C)C)C23C(=O)N(C)c2ccccc23)cc1 (stereo not given)	0.77	-3.1%	i
O=C(CCN1C(=O)C2CC=CCC2C1=O)N1CCN(c2ccccn2)CC1 (stereo not given)	1.6	2.8%	i
Nc1c(C(=O)NC2CCCC2)c2nc3ccccc3nc2n1N	0.64	-2.2%	i
O=C(CN1CCC(NC(=O)c2ccccc2F)CC1)NCc1ccc(F)cc1	.	2.7%	i
O=C(O)CCCCCCNS(=O)(=O)c1ccccc1	.	4.6%	i
O=C(NC1=NCCS1)C1CC2CCC1C2 (stereo not given)	-0.9	0.6%	i
COC(=O)Cn1nc(-c2ccccc2)c2cc(Cl)ccc21	.	-4.8%	i
CCOc1ncccc1C(=O)OCC(=O)c1ccc[nH]1	-0.48	-6.2%	i

(next part)
molecule	WNV protease inh	Hsc70 ATP site	MT1-MMP promoter
CCC(C)N(C(=O)COC(=O)c1[nH]c(C)c(C(C)=O)c1C)C1CCS(=O)(=O)C1 (stereo not given)	-0.84	1.9%	i
CSC1=NCCN1C(=O)Cc1ccc(F)cc1	-0.61	2.3%	i
CC(=O)N1c2c(cc(Br)cc2S(=O)(=O)N2CCOCC2)CC1C (stereo not given)	1.7	4.2%	i
CN(C)S(=O)(=O)c1cccc(-c2nnc(SCc3cc(Cl)cc4c3OCOC4)n2N)c1	0.88	-3.6%	i
CCOC(=O)CN1C(=O)C2(OCCCO2)c2ccccc21	0.13	-10%	i
CCCN(CCC)CCCNC(=O)CS(=O)Cc1nc(-c2ccc(OC)c(OC)c2)oc1C (stereo not given)	-0.93	-0.5%	i
N=c1c(C(=O)NCc2ccco2)cc2c(=O)n3ccccc3nc2n1Cc1ccc(Cl)cc1	-0.52	1.8%	i
CN1CCN(CCNC(=O)Nc2ccccc2C(F)(F)F)CC1	-0.24	1.5%	i
Cc1cc(C)c2c(N)c(S(=O)(=O)Cc3ccccc3)sc2n1	0.6	3.8%	i
CCOC(=O)c1cnn(-c2nc(SC)nc3sc4c(c23)CCCC4)c1N	.	4.4%	i

Going on with the list:
molecule	WNV protease inh	Hsc70 ATP site	MT1-MMP promoter
Cn1nc(-c2ccccc2)c2nc3ccccc3nc21	1.1	7.2%	i
CCSC(C)CC1C/C(=N/O)c2c(C)noc2C1 (stereo not given)	0.67	-2.2%	i
CCOc1ccc(NC(=O)CS(=O)CC(=O)NC2CCCc3ccccc32)cc1 (stereo not given)	-0.05	-1.1%	i
CCn1nc(C(=O)N[C@@H](CCSC)c2nc3ccccc3[nH]2)c2ccccc2c1=O	.	0.7%	i
COc1ccc(C(c2nnnn2C2CCCCC2)N2CCN(c3ccccc3F)CC2)cc1 (stereo not given)	0.18	1.0%	i
CCCCC(=O)NC(Nc1ccc(C)cn1)(C(=O)OCC)C(F)(F)F (stereo not given)	-0.77	1.0%	i
CC(=O)Nc1ccc(S(=O)(=O)Nc2nc3ccccc3nc2Sc2nncn2C)cc1	-0.84	47%	i
Cc1ccc(CN(C(=O)c2cc3ccccc3oc2=O)C2CCS(=O)(=O)C2)cc1 (stereo not given)	.	1.7%	i
COc1ccccc1NC(=O)CN1CCN(Cc2ccccc2)CC1	1.1	6.8%	i
O=C(Cn1nnc(-c2ccccc2F)n1)Nc1ccc(C(=O)N2CCOCC2)cc1	0.71	4.8%	i

In the list so far, three contain an NH in an aromatic ring.
molecule	WNV protease inh	Hsc70 ATP site	MT1-MMP promoter
CCOc1ncccc1C(=O)OCC(=O)c1ccc[nH]1	-0.48	-6.2%	i
CCC(C)N(C(=O)COC(=O)c1[nH]c(C)c(C(C)=O)c1C)C1CCS(=O)(=O)C1 (stereo not given)	-0.84	1.9%	i
CCn1nc(C(=O)N[C@@H](CCSC)c2nc3ccccc3[nH]2)c2ccccc2c1=O	.	0.7%	i

Later entries:
molecule	WNV protease inh	Hsc70 ATP site	MT1-MMP promoter
Cc1ccc(Nc2nc(Nc3ccc(C)cc3)nc(SC3=NCCS3)n2)cc1	.	1.2%	i
COc1ccc(OCC(=O)Nc2cccc3cccnc23)cc1	0.04	1.9%	i
Cc1cc(S(=O)(=O)N2CCCC2C(=O)N2CCOCC2)c(C)cc1Cl (stereo not given)	.	4.6%	i
CC(=O)C1=C(C)NC(C)=C(C(C)=O)C1c1cn(-c2ccccc2)nc1-c1cccs1	.	-3.5%	i
Cc1ccccc1Nc1nnc(C)c(=O)[nH]1	-1.1	-9.1%	i
CC(=O)Nc1ccc(S(=O)(=O)NCCc2csc(C)n2)cc1	-0.04	2.2%	i
C=CCSc1nnc2c(n1)[nH]c1c(C)cccc12	-0.58	0.7%	i
COC(=O)/C(NC(C)=O)=C(\C)c1ccc(Cl)cc1	.	-2.5%	i
COc1ccc(-c2nc(CS(=O)CC(=O)NC3CCCc4ccccc43)c(C)o2)cc1OC (stereo not given)	0.0028	-4.8%	i
C=C(C)Cn1c(SCC(=O)NCc2ccco2)nc2sc3c(c2c1=O)CCC3	1.1	5.4%	i

(further entries)
molecule	WNV protease inh	Hsc70 ATP site	MT1-MMP promoter
N#C/C(=C/c1ccc(N2CCCCCC2)o1)c1cccc(F)c1	.	-76%	i
COCCn1nnnc1C(c1cc2cc(C)ccc2[nH]c1=O)N1CCCCCC1 (stereo not given)	0.32	8.4%	i
COc1ccc(N2C(=O)C3CCCN3C2c2ccc(Cl)cc2)cc1 (stereo not given)	0.31	-1.3%	i
C=CCOC(=O)COc1ccc2c(C)c(CC)c(=O)oc2c1	0.3	0.0%	i
COc1cccc(C(=O)NCC(=O)N2CCC(C)CC2)c1	-0.5	3.9%	i
Cc1c(Nc2nc3ccccc3nc2NS(=O)(=O)c2ccccc2)c(=O)n(-c2ccccc2)n1C	0.59	0.8%	i
CCOc1cc(/C=C2/C(=N)N3C=CSC3=NC2=O)ccc1OCCCOc1ccccc1C	.	-3.1%	i
C/C(=N\O)c1ccc2c3c([nH]c2c1)CCCC3	-0.43	19%	i
COc1ccc(-c2cc(C(=O)OC3CCOC3=O)c3ccccc3n2)cc1 (stereo not given)	.	-0.7%	i
NC(=O)C1(N2CCCCC2)CCN(C(=O)NC23CC4CC(CC(C4)C2)C3)CC1	.	-3.7%	i

(more compounds)
molecule	WNV protease inh	Hsc70 ATP site	MT1-MMP promoter
CSCCC(NC(=O)c1ccccc1)C(=O)NC1CC1 (stereo not given)	.	-1.4%	i
CCOc1ccccc1NC(=O)N1CCCC1C(=O)Nc1nnc(CC)s1 (stereo not given)	0.81	0.7%	i
CCOc1ccc2nc(NC(=O)C3CCCN(S(=O)(=O)c4cccc5nonc45)C3)sc2c1 (stereo not given)	.	-3.3%	i
COc1cccc(NC2=NCC(=O)N2Cc2cccs2)c1	-0.57	5.9%	i
C=CCn1c(-c2cccc(OC)c2)nc2nc3ccccc3nc21	.	-3.9%	i
CCC(=O)N1CCN(c2nc(-c3ccc(Cl)cc3)cs2)CC1	.	-4.6%	i
CCn1c(SCC(=O)NC2CCCCC2)nc2c(c1=O)SC(C)C2 (stereo not given)	0.23	-4.8%	i
CCn1nc(NC(=O)c2ccccn2)c2cc3cccc(C)c3nc21	-1.9	0.6%	i
COc1ccc(N(C(C)C(=O)NCc2ccco2)S(C)(=O)=O)cc1 (stereo not given)	-0.58	7.9%	i
COC(=O)c1ccc(C(=O)OC)c(NC(=O)CSc2nnc(-c3ccccc3Cl)o2)c1	0.89	-2.8%	i

(cont.)
molecule	WNV protease inh	Hsc70 ATP site	MT1-MMP promoter
O=C(OCCCN1CCCC1)C1(c2ccccc2)CCCC1	0.61	3.8%	i
COc1cc(C)c(C(C)C)cc1S(=O)(=O)NCCCn1ccnc1	0.16	-2.0%	i
COc1ccc(OC)c(S(=O)(=O)N(C)CC(=O)N2CCc3ccccc3C2)c1	0.73	4.2%	i
N#CCCn1c2ccccc2c2nc3ccccc3nc21	1.7	-1.4%	i
Cc1ccc(CNC(=O)CSc2nc(C)cc(C)c2C#N)cc1	1.4	-6.3%	i
N#Cc1c(SCC(=O)N2CCCCC2)nsc1SCC(=O)N1CCCCC1	-0.08	-4.3%	i
CCOc1ccc(NC(=O)CN2CCN(CC(=O)Nc3ccc(F)c(F)c3)CC2)cc1	-0.68	2.6%	i
COCC(C)NC(=O)c1ccccc1OC(C)=O (stereo not given)	-0.25	3.0%	i
CC1CCCN(S(=O)(=O)c2cc(Cl)ccc2Cl)C1 (stereo not given)	-0.04	0.1%	i
CCn1c(SCc2cccc(C(=O)O)c2)nnc1-c1ccccc1	0.54	-1.5%	i

Additional records follow:
molecule	WNV protease inh	Hsc70 ATP site	MT1-MMP promoter
CCOc1ccc(-c2cn(S(=O)(=O)c3cccc4nsnc34)nc2N)cc1	-0.42	-4.1%	i
O=c1[nH]ncc2c3ccccc3n(Cc3ccc(F)cc3)c12	1.4	-2.0%	i
COc1ccccc1OCC(=O)Nc1ccc(S(=O)(=O)Nc2cc(C)nc(C)n2)cc1	-0.41	-0.1%	i
Cc1ccc(-c2nnc3ccc(SCC(=O)Nc4cc(C)on4)nn23)cc1	-0.95	-8.7%	i
CC(C)C(=O)Nc1nnc(-c2ccccc2)o1	-1.2	-0.4%	i
Cc1occc1-c1nnc(SCC(=O)NCc2cccs2)n1-c1ccc(F)cc1	-0.53	-3.3%	i
OCCNc1nc(N2CCCC2)nc(N2CCCC2)n1	.	-3.5%	i
c1ccc(-n2ncc3c(N4CCN(c5ccccn5)CC4)nc(N4CCCCCC4)nc32)cc1	0.93	-2.2%	i
CCCCOc1cc(C(=O)NCCN(CC)CC)c2ccccc2n1	0.27&0.65	1.0%&1.0%	i
Clc1ccc(SCCn2cncn2)cc1	-0.11	3.5%	i

The list continues.
molecule	WNV protease inh	Hsc70 ATP site	MT1-MMP promoter
O=C1CN(C(=O)c2ccccn2)c2ccccc2N1	-0.29	6.0%	i
COCC(C)n1c(C)cc(C(=O)CN2C(=O)NC3(CCCCC3C)C2=O)c1C (stereo not given)	-0.11	-7.4%	i
Cn1cccc1Cc1nnc(SCC(=O)Nc2ccc(F)cc2)n1CCc1ccccc1	1.5	-3.8%	i
CCOC(=O)CSc1nc(-c2ccncc2)ccc1C#N	-0.2	-4.1%	i
COC(=O)c1ccc(OCC(=O)c2ccccc2)cc1	.	-0.7%	i
COC(=O)c1ccccc1NC(=O)Nc1ccc(C(=O)N2CCCC2)cc1	0.08	-2.0%	i
CCOC(=O)c1sc(NCc2ccco2)c(-c2nc3ccccc3s2)c1N	-0.07	-28%	i
COc1ccc(CCNC(=O)CN(c2ccc(OC)c(OC)c2)S(C)(=O)=O)cc1OC	-0.02	-5.4%	i
Cc1ccc(OCc2nc(-c3ccccn3)n[nH]2)cc1	.	8.4%	i
Cc1ccc(Cc2c(C)nc3c(C(=O)O)cnn3c2C)cc1	-0.25	0.6%	i

A stretch from further up, as a working copy:
molecule	WNV protease inh	Hsc70 ATP site	MT1-MMP promoter
COC(=O)c1ccc(OCC(=O)c2ccccc2)cc1	.	-0.7%	i
COC(=O)c1ccccc1NC(=O)Nc1ccc(C(=O)N2CCCC2)cc1	0.08	-2.0%	i
CCOC(=O)c1sc(NCc2ccco2)c(-c2nc3ccccc3s2)c1N	-0.07	-28%	i
COc1ccc(CCNC(=O)CN(c2ccc(OC)c(OC)c2)S(C)(=O)=O)cc1OC	-0.02	-5.4%	i
Cc1ccc(OCc2nc(-c3ccccn3)n[nH]2)cc1	.	8.4%	i
Cc1ccc(Cc2c(C)nc3c(C(=O)O)cnn3c2C)cc1	-0.25	0.6%	i

New compounds follow
molecule	WNV protease inh	Hsc70 ATP site	MT1-MMP promoter
CC(C)Cn1c(CN2CCCCC2C)nc2c1c(=O)n(C)c(=O)n2C (stereo not given)	-0.02	5.2%	i
Cc1ccc(-c2cc(N)n(-c3ccccc3)n2)cc1	.	0.5%	i
CC1=C(C#N)C(c2ccoc2)C(C(=O)OCc2ccccc2)=C(N)S1 (stereo not given)	-0.19	-4.6%	i
CCOC(=O)c1sc(=S)n(CC)c1NC(=O)CC	.	-2.3%	i
O=C(Cn1cc2c(n1)CCCCC2)NCc1cccs1	-0.6	2.0%	i
CCCCOC(=O)c1ccc(NC(=O)CSc2nncn2C)cc1	-0.31	-4.5%	+

A portion of the library; rates above refer to the full screens.
